VDR inhibitor – vitamin D3 receptor (human) inhibition; AID 504847; Potency, µM, inactives show max response, negative = inhibition, actives largely listed as inhibitors; VDR-SRC2-3 peptide fluorescence polarization, 2 h; actives 0.93% (n = 400,000); P11473; active means well fitted inhibition curve with a large enough effect; inconclusive means small, poorly fitted or top-dose-only effect, or another doubt; inactive means no such curve, though single readings can be large or run the other way; further: series mostly up to about 120 µM
Target sequence (P11473 whole entry, looked up): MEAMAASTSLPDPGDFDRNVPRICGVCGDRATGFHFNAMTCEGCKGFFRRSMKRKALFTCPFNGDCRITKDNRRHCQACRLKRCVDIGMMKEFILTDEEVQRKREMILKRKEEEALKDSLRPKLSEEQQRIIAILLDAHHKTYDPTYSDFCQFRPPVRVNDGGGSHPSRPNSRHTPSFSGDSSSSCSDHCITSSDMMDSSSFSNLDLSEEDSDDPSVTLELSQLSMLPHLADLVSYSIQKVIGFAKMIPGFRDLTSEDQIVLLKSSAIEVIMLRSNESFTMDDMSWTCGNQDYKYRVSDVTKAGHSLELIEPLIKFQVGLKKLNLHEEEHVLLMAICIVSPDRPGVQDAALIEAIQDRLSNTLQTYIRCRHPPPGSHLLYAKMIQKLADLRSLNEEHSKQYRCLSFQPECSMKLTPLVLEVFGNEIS
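After 23 nl compound addition and a short centrifugation, plates sat for 2 hours at ambient temperature; polarization of fluorescence then indicated loss of VDR binding to peptide SRC2-3.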
* marks the source's active call; other numbers are inactive results; ? = inconclusive; [ ] = dose if it differs, or a comment. On the % scale 0 is the no-effect control and ±100 the full control effect; potency means the concentration at half of the fitted maximal effect.

Start of the data: the first two entries, to show the layout:
SMILES | VDR inhibitor
CCOc1ccc(C)cc1-n1nc2ccccc2n1 | -1%
O=C(Cn1c(=O)oc2ccccc21)Nc1ccccc1N1CCOCC1 | -3%

Main list, from the start:
SMILES | VDR inhibitor
CCOc1ccc(C)cc1-n1nc2ccccc2n1 | -1%
O=C(Cn1c(=O)oc2ccccc21)Nc1ccccc1N1CCOCC1 | -3%
COCCn1c(C)cc(C(=O)COC(=O)c2ccc(Br)o2)c1C | 1%
COc1ccccc1-c1c(C)nn2c(-c3ccccc3)cc(-c3ccccc3)nc12 | -20%
Cc1ccc(S(=O)(=O)NNC(=O)C2COc3ccccc3O2)cc1 (centres undefined) | 3%
Brc1ccc(-c2cn3c(n2)SCC3)cc1 | 4%
COc1ccccc1CCC(=O)OCC(=O)Nc1ccc(S(N)(=O)=O)cc1 | -2%
Cn1nc(C(F)(F)F)c(-c2ccccc2)c1N | 29%
CCc1ccc(NC(=O)C2CCCN(c3nn4cc(-c5ccc(OC)cc5)nc4s3)C2)cc1 (centres undefined) | 10%
CC1(C)C2CC[C@]3(C)C(CC=C4[C@@H]5C[C@](C)(CO)CC[C@]5(C(=O)O)CC[C@]43C)[C@@]2(C)CC[C@@H]1O (some centres undefined) | -2%
CC(C)(C)c1ccc(C(=O)Nc2ccc(C(=O)OCc3cc(=O)n4ccsc4n3)cc2)cc1 | 6%
Cc1cccc(Oc2ncnc3onc(C)c23)c1 | 1%
COc1ccc(N2CC(NC(=O)c3ccc4ccccc4c3)CC2=O)cc1OC (centres undefined) | 5%
Cc1cc(C)c(OCCOCCN2CCN(C)CC2)c(Cl)c1 | -6%
Cc1cccc(C)c1NC(=O)CCN1C(=O)C2C3CCC(C3)C2C1=O (centres undefined) | 2%
CCOc1ccc(NC(=O)C(=O)NCCc2csc(-c3ccc(C(F)(F)F)cc3)n2)cc1 | 2%
COc1ccc(C)cc1NC(=O)C1CCCN1S(=O)(=O)c1ccccc1F (centres undefined) | 0%
COC(=O)c1c(NC(=O)COC(=O)CCNS(=O)(=O)c2ccccc2)sc(C)c1C | 1%
O=C(O)c1ccc(Cn2c(=S)[nH]c3cc(Cl)ccc3c2=O)cc1 | 9%
Cc1cccc(N(C(=O)Cc2cccs2)C(C(=O)NCc2ccco2)c2ccncc2)c1 (centres undefined) | 5%
CCc1ccc(C(C(=O)NC2CCCCC2)N(C(=O)c2csnn2)C2CC2)cc1 (centres undefined) | 8%
COC(=O)CSc1nnc(-c2ccc(S(=O)(=O)N3CCCCC3)cc2)o1 | 4%
CCCCCn1c(=O)[nH]c2cc(C(=O)NCc3ccc(F)cc3)ccc2c1=O | -19%
Cc1nc2c(C#N)cnn2c2c1CCN(Cc1ccccc1)N2C | -6%

Arranged by SMILES length (low to high): part of the list above
SMILES | VDR inhibitor
Cc1cc(C)c(OCCOCCN2CCN(C)CC2)c(Cl)c1 | -6%
Cc1cccc(C)c1NC(=O)CCN1C(=O)C2C3CCC(C3)C2C1=O (centres undefined) | 2%
COc1ccc(N2CC(NC(=O)c3ccc4ccccc4c3)CC2=O)cc1OC (centres undefined) | 5%

(cont.)
SMILES | VDR inhibitor
O=C(Nc1nccs1)[C@@H]1CCCN1S(=O)(=O)c1ccccc1F | 8%
Nc1c(C(=O)Nc2ccc(C(=O)O)cc2)sc2nc3c(cc12)CCCC3 | 19%
CCc1cccc(C)c1NC(=O)CCCN1C(=O)CN(C)C1=O | 4%
CCc1ccc(CN2CCCC(C(=O)N3CCCCC3)C2)cc1 (centres undefined) | -7%
COc1ccc(OC)c(/C=C/C(=O)NCCc2nc3ccccc3[nH]2)c1 | -8%
COc1ccc(N2C(=O)CC(NC3CC3)C2=O)cc1 (centres undefined) | 9%
CC1CCCCC1NC(=O)Cn1cnc2sccc2c1=O (centres undefined) | -8%
COc1ccc(C2CC(c3ccccc3)=NN2c2ccccc2)c(C(=O)O)c1OC (centres undefined) | 7%
CC(=O)N1c2ccc(S(=O)(=O)N(C)Cc3ccccc3)cc2CC1C (centres undefined) | 11%
Cc1sc(NC(=O)CSc2nc(O)cc(=O)[nH]2)nc1-c1ccccc1 | -2%
CC(=O)c1cccc(OC(=O)c2ccc3c(=O)n4c(nc3c2)CCC4)c1 | ?
Cc1ccc(CN2CCN(CC(=O)N/N=C/c3c[nH]c4ccccc34)CC2)cc1 | -4%
O=C(Nc1ccccc1N1CCCCC1)c1ccc2nccnc2c1 | 1%
Cc1cc([N+](=O)[O-])ccc1NC(c1nnc(-c2ccccc2)o1)c1ccccc1F (centres undefined) | 5%
CCc1ccc2c(CN(CC)Cc3nc4ccccc4c(=O)[nH]3)cc(=O)oc2c1 | -20%
COC(=O)c1ccc(COC(=O)CNC(=O)c2cccc(OC)c2)o1 | -4%
CCOc1ccc(NCc2cccn2-c2nnc(N3CCC(C(=O)NC(C)c4ccccc4)CC3)s2)cc1 (centres undefined) | -6%
COc1ccc(CNC(=O)C(C)OC(=O)c2cccs2)cc1 (centres undefined) | 27%
CCC(C)[C@H](NC(=O)OC(C)(C)C)C(=O)N/N=C/c1cccc2nccnc12 (some centres undefined) | 15%
Cc1ccc(S(=O)(=O)n2cc(CO)c3ccccc32)cc1 | -14%
CCCc1cc(=O)[nH]c(SCC(=O)Nc2ncc(S(=O)(=O)c3ccc([N+](=O)[O-])cc3)s2)n1 | -31%
S=C(NCc1ccco1)N1CCN(Cc2ccco2)CC1 | -6%
O=C(COc1ccc(F)cc1)Nc1nnc(C2CC2)s1 | 62%[activator]
Cc1ccc(-c2nn(-c3ccccc3)cc2/C=C/C(=O)Nc2cccc(S(N)(=O)=O)c2)cc1 | -11%
Cc1cc(NCCCN(C)C)n2nc(-c3cccs3)cc2n1 | 1%
CCOC(=O)c1cnn(-c2ccc(NS(=O)(=O)c3ccc(Cl)cc3)cc2)c1C(F)(F)F | 1%
Cc1cc(C)cc(C(=O)NC(CC(N)=O)c2ccc(N3CCN(c4ccccc4)CC3)c([N+](=O)[O-])c2)c1 (centres undefined) | -4%
COc1cc(NS(=O)(=O)c2ccc(NC(=S)Nc3ccccc3)cc2)nc(OC)n1 | 10%
Cc1ccc(NS(=O)(=O)c2ccc(CCC(=O)O)cc2)cc1 | 5%
CCc1ccc(NC(=O)Cn2c(=O)n(CCCC(=O)NCc3ccc4c(c3)OCO4)c(=O)c3ccccc32)cc1 | -3%
CCCC(=O)NC(=S)Nc1sc2c(c1C(N)=O)CCC2 | -3%
CC(C)n1c(=N)c(C(=O)NCCc2ccccc2)cc2c(=O)n3ccccc3nc21 | -16%
Cc1ccc(CN(c2ccc(C(=O)N3CCc4ccccc4C3)cc2)S(C)(=O)=O)cc1 | -2%
O=c1[nH]cnc2ncc(-c3ccc(O)cc3)nc12 | -20%
O=C1CCN(S(=O)(=O)c2ccccc2)CCN1CCOCc1ccc(Cl)cc1 | -5%
CCc1nnc(NC(=O)CCN2C(=O)c3ccccc3C2=O)s1 | 7%

Single entries from the results shown.
Under VDR inhibitor, Cc1ccc(CN(c2ccc(C(=O)N3CCc4ccccc4C3)cc2)S(C)(=O)=O)cc1 shows -2%
Under VDR inhibitor, CCOC(=O)c1cnn(-c2ccc(NS(=O)(=O)c3ccc(Cl)cc3)cc2)c1C(F)(F)F shows 1%

Next entries.
SMILES | VDR inhibitor
CC(C(=O)N1CCc2ccccc21)N1CCN(S(=O)(=O)c2cccc(C(F)(F)F)c2)CC1 (centres undefined) | -18%
C=CCN=C1SC(C)C(=O)N1S(=O)(=O)c1ccccc1 (centres undefined) | 5%
O=C(NCc1ccncc1)/C(=N/O)c1ccccc1 | 16%
COCCSc1ccccc1C(=O)N1CCN(Cc2ccccc2)CC1 | 2%
CCC(C)N1CC23C=CC(O2)C(C(=O)OCc2ccccc2)C3C1=O (centres undefined) | -12%
Cc1nc(CCNC(=O)CC2C(=O)NCCN2CC(C)C)nc2c1CCC2 (centres undefined) | -4%
COc1ccc(CNC(=O)C2CC(c3ccccc3C(F)(F)F)=NO2)cc1 (centres undefined) | -8%
Cc1cccc(N2CCN(C(=O)c3sc4nc5n(c(=O)c4c3C)CCC5)CC2C)c1 (centres undefined) | -5%
O=C(/C=C/c1ccc2c(c1)OCO2)N1CCN(c2ccccc2F)CC1 | 4%
COc1ccc(S(=O)(=O)NCCC(=O)NC2CCCCC2C)cc1[N+](=O)[O-] (centres undefined) | 2%
COc1ccc(/C=N/Nc2ccccc2C(=O)O)cc1Cn1cc([N+](=O)[O-])cn1 | 3%
C=CCC1c2cccc(C(=O)OC)c2C(=O)N1c1ccccc1 (centres undefined) | -13%
Cc1cccc(NC(=O)CNC(=O)CCNC(=O)c2ccc(C(C)(C)C)cc2)c1C | -9%
CCC1(C)Cc2c(sc3nc(SC)[nH]c(=O)c23)CO1 (centres undefined) | -9%
COc1ccc(C(=O)Nc2cccc(-c3nnc(-c4ccco4)o3)c2)cc1 | 0%
O=C(Oc1cccc(C(=S)N2CCOCC2)c1)c1ccc([N+](=O)[O-])cc1 | -18%
COc1ccc(C(=O)Nc2ccc3c(c2)OCCO3)cc1S(=O)(=O)N1CCOCC1 | -18%
Cc1c(C(=O)NCC2COc3ccccc3O2)oc2ccc(S(=O)(=O)N3CCOCC3)cc12 (centres undefined) | 17%
Cc1cccc(-n2c(SCc3cc(=O)n4ccsc4n3)nc3ccccc32)c1 | -13%
Cc1ccccc1CNC(=O)CCC(=O)N1Cc2ccccc2Oc2ncccc21 | 0%
COc1ccc2[nH]c(N=Nc3ccccc3C)c(O)c2c1 | 1%
CCCc1cc(C(=O)OC)c(NC(=O)OCC)s1 | 6%
COCCn1c(=O)c(-c2ccc(Cl)cc2)nc2cnc(N3CCNCC3)nc21 | ?
Cc1ccc(S(=O)(=O)N2CCCC2C(=O)Nc2ccc(Br)cc2)cc1 (centres undefined) | 7%
CC1CCCCN1C(=O)c1ccc(C(=O)c2ccccc2)cc1 (centres undefined) | -15%
O=C(Nc1ccon1)c1ccc(Cl)s1 | 6%
COCCNc1ncnc2c1[nH]c1ccccc12 | 7%
Cc1nc2cc(-c3cccc(F)c3)nn2c(C)c1CCC(=O)NC(C)CCc1ccco1 (centres undefined) | -6%
Cc1ccc2c(c1)c1c(c(=O)n(-c3cccc(Cl)c3)c(=O)n1CC(=O)N1CCCC1)n2C | 8%
O=c1[nH]c(CSc2nnc(COc3ccccc3)n2-c2ccccc2)nc2ccccc12 | ?
O=C(NCCCn1ccnc1)c1ccc(NS(=O)(=O)c2cccc([N+](=O)[O-])c2)cc1 | -7%
COc1ccc(F)cc1S(=O)(=O)N1CCCC(C)C1 (centres undefined) | -7%
CC(C(=O)Nc1ccc2c(c1)OCCO2)N1Cc2ccccc2C1=O (centres undefined) | -25%
COc1ccc(C(=O)NCCc2nnc3ccc(SCC(=O)N4CCCC4)nn23)cc1 | 2%
COc1ccccc1CNc1ncnc2c1c(-c1ccccc1)cn2-c1ccc(Br)cc1 | 5%
COc1cc(NC(=O)c2noc3c2CCC3)c(OC)cc1Cl | -3%

Some of these compounds in order of the VDR inhibitor value, falling:
SMILES,VDR inhibitor
COCCNc1ncnc2c1[nH]c1ccccc12,7%
O=C(Nc1ccon1)c1ccc(Cl)s1,6%
COc1cc(NC(=O)c2noc3c2CCC3)c(OC)cc1Cl,-3%
Cc1nc2cc(-c3cccc(F)c3)nn2c(C)c1CCC(=O)NC(C)CCc1ccco1 (centres undefined),-6%
COc1ccc(F)cc1S(=O)(=O)N1CCCC(C)C1 (centres undefined),-7%
CC1CCCCN1C(=O)c1ccc(C(=O)c2ccccc2)cc1 (centres undefined),-15%
CC(C(=O)Nc1ccc2c(c1)OCCO2)N1Cc2ccccc2C1=O (centres undefined),-25%

(further entries)
SMILES | VDR inhibitor
O=C(NCCc1c[nH]c2ccccc12)C(=O)NCC1OCCCN1S(=O)(=O)c1ccc(F)cc1 (centres undefined) | -2%
COc1ccc(S(=O)(=O)Nc2ccccc2C(=O)NCc2cccnc2)cc1OC | -20%
CCOc1ccc(-n2c(=O)c3sc4ccccc4c3n(Cc3cccc(C)c3)c2=O)cc1 | 2%
Cc1ccc2c(c1)COc1c3ccc(C(=O)N4CCCCC4)cc3nn1-2 | -1%
O=C(CN1CCCC1)OCCCC1CCCCC1 | -6%
Cc1nnc2c(N3CCN(C(=O)c4ccco4)CC3)nc3ccccc3n12 | -16%
Cc1ccc(NC(=S)Nc2cccc3cnccc23)c(C)c1 | -2%
Cc1ccccc1-c1noc(-c2ccccc2C(=O)NCc2ccco2)n1 | -6%
Cc1ccc(Cl)c(OCCN2CCc3ccccc3C2)c1 | ?
COc1ccc(NC(=O)CSc2ncc3c(n2)-c2ccccc2N(C)S3(=O)=O)cc1Cl | 1%
CCOC(=O)N1CCN(Cc2nc(N)nc(Nc3ccc(Cl)cc3)n2)CC1 | -5%
CC1=C(C(=O)Nc2ccccn2)C(c2ccccc2Cl)NC(=S)N1 (centres undefined) | -7%
CCc1ccc(-c2csc3[n+]2CCN3C(C)=O)cc1 | 25µM*
Cc1ccc2cccc(OCC(=O)Nc3ccc4c(c3)OCO4)c2n1 | 2%
O=C(CSc1nnc(NC(=O)C2CC2)s1)Nc1ccccc1 | 4%
O=C(CSc1nnc(C2CC2)n1Cc1ccccc1)N1CCNC1=O | 9%
COc1ccc(C2=NN(C(=O)CCCC(=O)O)C(c3cccs3)C2)cc1OC (centres undefined) | 12%
CS(=O)(=O)c1cccc(C(=O)NCc2ccccc2)c1 | 6%
O=C(COC(=O)CC1CCS(=O)(=O)C1)Nc1ccc(F)cc1 (centres undefined) | -8%
O=C(C(=O)N1CCCCCC1)c1c[nH]c2ccccc12 | 7%
COc1ccccc1OCc1ccc(C(=O)Nc2ccccc2F)cc1 | -7%
C[C@H](CO)N1C[C@H](C)[C@@H](CN(C)CC2CCCCC2)Oc2c(NC(=O)Cc3ccccc3)cccc2C1=O | ?
CCOC(=O)CNC(=O)CSc1nc(-c2cccc(C)c2)ns1 | 79µM*

Screening data deposited in PubChem by National Center for Advancing Translational Sciences (NCATS).

The list is partial; the hit share may differ from the screen's.
